Screening results from PubChem BioAssay.
Beta cell apopt – beta cell apoptosis inhibition; INS-1E cytokine-induced death, ATP luminescence, 48 h; percent of positive-control rescue, neutral wells zero; protection from apoptosis, % (test concentration not listed); actives 0.8% (n = 300,000); AID 435005;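 active = all replicates at 75% or more, or half of them and the mean; inconclusive = half reach 75% but not the mean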;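 also: 0% = cytokine-treated negative control wells and 100% = positive control rescue; higher means more ATP so stronger rescue from cytokine killing; wells of about 40 µL received 100 nL stock; the first replicate is given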
LANA-H2B inh – blocks KSHV LANA binding to histone H2A/H2B; Q9QR71; cell-free LANA-H2A/H2B peptide, fluorescence polarization; inhibition, % (test concentration not listed); actives 0.6% (n = 320,000); AID 2629; in the data active = inhibition mostly above about 10%, no sharp cut-off; inactive = mostly below about 6.7%;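 also: stock transfer was 7.5 nL into about 10 µL; 0% = median of vehicle wells and 100% = median of positive control wells; one replicate is shown; the record names a cut of 25% in any replicate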
AF4-AF9 inh – blocks AF4 peptide binding to human AF9; P42568; AlphaScreen, biotin-AF4 peptide binding to FLAG-AF9; inhibition, % at 10 µM; actives 0.47% (n = 350,000);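 active = every replicate reaching a set inhibition limit, whatever the replicate mean, cut at about 25% in these data; inconclusive = mean inhibition reaches that limit but some replicates miss it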;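 also: 0% = plate neutral control median and 100% = total signal loss; the record names both 10 and 1 µM as test concentration; the first replicate is given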
Target sequence (P42568 whole entry, looked up): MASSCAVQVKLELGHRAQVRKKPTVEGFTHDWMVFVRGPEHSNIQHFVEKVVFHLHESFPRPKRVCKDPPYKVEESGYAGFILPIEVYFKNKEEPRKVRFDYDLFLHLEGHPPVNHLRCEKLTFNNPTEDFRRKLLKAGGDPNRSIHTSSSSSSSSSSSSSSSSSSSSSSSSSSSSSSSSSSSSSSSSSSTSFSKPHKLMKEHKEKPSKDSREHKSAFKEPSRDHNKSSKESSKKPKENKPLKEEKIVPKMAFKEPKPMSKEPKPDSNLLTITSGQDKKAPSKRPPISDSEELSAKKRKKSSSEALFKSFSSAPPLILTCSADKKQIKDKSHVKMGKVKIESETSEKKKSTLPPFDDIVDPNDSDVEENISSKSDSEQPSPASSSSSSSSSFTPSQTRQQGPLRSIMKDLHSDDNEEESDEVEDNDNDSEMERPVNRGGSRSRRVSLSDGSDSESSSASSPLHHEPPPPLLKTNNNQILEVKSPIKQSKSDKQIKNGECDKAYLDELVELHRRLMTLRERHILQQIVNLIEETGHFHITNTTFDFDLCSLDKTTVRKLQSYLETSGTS
T cruzi inh – blocks replication of Trypanosoma cruzi. T. cruzi beta-gal in NIH3T3, luminescence, 90 h. inhibition, % (test concentration not listed). actives 1.4% (n = 300,000);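 active = mean inhibition across valid replicates above about 55%, limit read from the data; inconclusive = mean below that limit but half or more replicates reach it; inactive = mean below it, under half of replicates reach it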;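 also: signal also drops with host cell toxicity which is not excluded here; 0% = plate median of DMSO wells and 100% = zero luminescence signal; higher percent means less beta-gal luminescence so fewer parasites; stock transfer was 50 nL into about 50 µL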
Calb FLC – C. albicans growth modulation with fluconazole | C. albicans CaCi-2 (fluconazole-resistant clinical isolate) + fluconazole, Alamar Blue growth, 48 h | growth inhibition, % (concentration not given with the values) | actives 0.57% (n = 300,000) | AID 1979;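 active = most replicates above 75%; inconclusive = exactly half above 75%; inactive = most below 75%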;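 also: all wells also contain fluconazole at 8 µg/ml as a sub-toxic cotreatment; 0% = median of DMSO wells and 100% = median of geldanamycin control wells; wells of about 8 µL received 7.5 nL stock; the first replicate is given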
Vif A3G – inhibitors of Vif binding to APOBEC3G peptide, primary screen, biochemical, TR-FRET, GST-Vif 1-94, biotin-A3G peptide, dose response retest (AID 1117319); TR-FRET GST-Vif / biotin-A3G peptide binding; higher % means a stronger effect; test concentration not given here; strong numbers were not always called active; inhibition, %, or IC50 in µM where a hit was titrated; actives 0.57% (n = 260,000);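 active = above the screen mean plus three standard deviations and confirmed in dose response; inconclusive = results disagree or hit not tested in dose response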;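 also: Vif residues 1-94 fused to GST binding biotinylated APOBEC3G peptide 110-148; 0% = full assay without inhibitor and 100% = GST in place of GST-Vif; retest series ran down from 100 µM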
Bfl-1 A1 inh – inhibitors of the anti-apoptotic protein A1, read as caspase activation; actives 0.066% (n = 330,000); MEF A1-2A-BIM cells, Caspase-Glo 3/7 luminescence, 3 h; percent of clofoctol response, vehicle zero; caspase activation, % (concentration not given with the values);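 active = over half of replicate activation scores above 10%, or exactly half above 10 with the replicate mean above 10; inconclusive = replicate mean below 10 yet half the replicates above 10; inactive = over half of replicates below 10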;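 also: wells of about 30 µL received 50 nL stock; many hits fall short of the cut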
RanGTP-Imp inh – inhibitors of RanGTP-importin-beta interaction, primary screen, biochemical, FRET, CFP-Ran, YFP-importin-beta, homogeneous | cell-free CFP-Ran/YFP-importin-beta FRET ratio | inhibition, % (no concentration beside the values) | actives 1.1% (n = 300,000) | AID 2216;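 active = most replicates above 15%; inconclusive = exactly half above 15%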;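 also: 0% = DMSO wells and 100% = Ran loaded with GDP instead of GTP; wells of about 40 µL received 100 nL stock; the first replicate is given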
The depositor's hits bear a star; ? = inconclusive; · = no result given.

Structure	Beta cell apopt	LANA-H2B inh	AF4-AF9 inh	T cruzi inh	Calb FLC	Vif A3G	Bfl-1 A1 inh	RanGTP-Imp inh
CC(C)Cc1csc(NC(=O)C(C)C)c1C(=O)O	-3	-2.5	-2.6	-3	-2	21%	-0.3	-0.4
COC(=O)[C@]1(CC(C)C)N[C@H](c2ccc(-c3ccc(Cl)c(Cl)c3)cc2)[C@@H]2C(=O)N(C)C(=O)[C@@H]21	10	-5.3	-2.0	17	-8	·	-0.7	-1.3
CC(C)(C)Nc1nc(Cl)nc(NCc2ccccc2)n1	-10	-2.5	-0.3	17	-12	·	0.5	2.6
Cc1ccc2nc(C)cc(C(=O)OCC(=O)Nc3c(C)n(C)n(-c4ccccc4)c3=O)c2c1	-7	0.4	-0.2	-8	23	-4%	0.1	1.1
O=C(CN(Cc1ccc(F)cc1)C(=O)CCC(=O)Nc1ccccn1)NCCc1ccccc1	-9	5.3	-2.2	9	4	-7%	-0.1	-0.3
CSc1nc2ccc3nc(NC(=O)c4ccc(C)cc4)sc3c2s1	-4	0.3	2.2	4	1	2%	0.1	-2.3
CCN1CCN(C(C(=O)NC2CCCC2)c2cc3c(cc2[N+](=O)[O-])OCO3)CC1 (stereo not given)	0	-3.3	0.1	-9	8	·	0.2	?
CN(C)c1ccc(NC(=O)c2ccc3c(c2)nnn3C)cc1	-1	-1.7	-2.6	-15	3	17%	0.3	-1.5
COc1ccc(CN2[C@@H](CC(C)=O)c3cc(C(F)(F)F)ccc3S2(=O)=O)cc1	6	-1.3	·	-9	5	·	2.3	-2.9
CC(=O)c1c(C)[nH]c(C(=O)NCc2ccccc2F)c1C	·	-4.7	0.8	1	1	·	-0.2	7.1
COc1cc(NC(=O)COC(=O)c2cc(S(=O)(=O)N3CCCCC3)ccc2Cl)c(C)cc1[N+](=O)[O-]	-10	1.3	·	4	-7	23%	0.4	2.5
Cc1cc(C(=O)Cn2nnc3ccccc3c2=O)c(C)n1Cc1cccs1	21	5.4	·	21	7	-8%	-0.9	-2.4
Cc1cccc(-n2ccnc2SCC(=O)Nc2nccs2)c1C	-3	-6.8	·	-18	-8	8%	0.3	3.1
CS(=O)(=O)c1sc(C#N)c2c1C(=O)CC(c1ccccc1)C2 (stereo not given)	39*	4.1	·	39	0	-30%	57*	0.1
c1ccc(CCOn2ccnc2)cc1	-8	3.0	-1.0	-12	-14	10%	1.6	0.0
O=S1(=O)CCOCCN1Cc1ccccc1	-9	0.4	1.6	-21	-18	·	0.0	3.7
CC(C)[C@H](NC(N)=O)C(=O)Nc1ccc(Oc2ccccc2)cc1	1	2.3	-0.8	10	-22	·	0.8	1.6
COCCCNC(=S)Nc1ccc2nc(N3CCOCC3)cc(C)c2c1	-1	1.1	4.2	-7	-2	1%	-1.3	-0.5
CCc1cc(=O)oc2cc(OCC(=O)N3CCCc4ccccc43)ccc12	4	-0.9	·	5	6	-1%	0.4	-0.9
Cc1ccc(S(=O)(=O)N(C)C)cc1NC(=O)CN1C(=O)NC2(CCCCCC2)C1=O	·	-99	2.9	-2	7	6%	0.6	-0.8
O=C(NCc1ccc2c(c1)OCO2)c1ccc(COc2cc(Cl)ccc2Cl)o1	8	-5.3	·	0	-38	9%	-0.3	1.5
O=C(NCC1COc2ccccc2O1)c1ccccc1 (stereo not given)	-5	-1.9	·	13	-4	18%	0.4	6.0
CCCCCC(=O)NC(CC(=O)OC)c1ccc2c(c1)OCO2 (stereo not given)	-3	·	-1.5	-11	1	1%	0.8	1.9
CC(=O)Oc1ccc2c(c1)Oc1cc(OC(C)=O)ccc1C21OC(=O)c2ccccc21	-5	142*	·	·	·	8%	-0.6	·
COc1cc(OC)cc(-c2nc3ccccc3c(=O)n2OC(=O)c2ccccc2C)c1	2	-1.7	1.3	-14	28	22%	0.4	0.2
COc1cc2c(cc1O)C(Cc1ccc(O)cc1)[N+](C)([O-])CC2 (stereo not given)	-1	-0.3	-2.0	-10	-4	·	-0.1	?
O=C(NCCC1=CCCCC1)C(=O)NCC(c1ccco1)N1CCN(c2ccccc2)CC1 (stereo not given)	7	·	·	-23	1	-4%	0.9	-2.4
Cc1ccc(C)c(SCC(=O)OCC(=O)c2ccco2)c1	-4	-2.5	-23	-11	-16	22%	0.5	-6.1
CCn1c(=O)n(CC)c2cc(N3CCCC3)c(NC(=O)c3ccccc3OC)cc21	21	-1.8	1.5	38	-5	·	0.8	0.1
CCOC(=O)c1sc(NC(=O)c2cc3n(n2)C(C(F)(F)F)CC(c2ccccc2)N3)c(C(=O)OCC)c1C (stereo not given)	0	-0.2	·	-18	-4	-7%	-0.2	1.9
COc1cccc(CN(C)CC(=O)NCc2ccc(C)cc2)c1	-10	-3.0	-0.1	2	4	31%	1.2	0.5
CC1CCCCN1S(=O)(=O)c1ccc(S(=O)(=O)N(Cc2ccccc2)Cc2ccco2)cc1 (stereo not given)	24	1.0	·	71*	-3	-2%	-0.4	1.1
O=C(CCCc1ccccc1)N1CCN(C2CCCCC2)CC1	·	-3.9	-2.8	-30	0	3%	0.0	-1.3
CC(C)(C)NC(=O)NC(=O)COC(=O)c1cccc(F)c1	-1	-5.2	0.2	-13	-5	-3%	0.4	-4.0
CC(CC(=O)Nc1nc2ccccc2[nH]1)c1ccccc1 (stereo not given)	1	2.7	·	4	-17	-4%	0.6	-3.0
CCCc1ccc(-c2ccc(/C=C/C(=O)O)cc2)nc1	0	1.8	5.0	-11	15	28%	-6.9	-4.3
COc1cccc(C2NC(=O)N(CCCC(=O)O)C(C)=C2C(=O)OCc2ccccc2)c1 (stereo not given)	0	-2.3	-11	-12	-6	·	0.1	2.7
O=C(CSc1nnnn1C1CCCCC1)N1CCN(C(=O)c2ccco2)CC1	-10	-0.1	-8.7	-9	-8	-10%	-0.3	-1.2
O=C(CSc1nnc(-c2ccco2)n1-c1ccccc1)NCC1CCCO1 (stereo not given)	-6	1.5	-1.1	4	-1	·	0.2	-2.0
O=C(Nc1cccc(C(=O)O)c1)/C(=C/c1ccc([N+](=O)[O-])cc1)NC(=O)c1ccccc1	-6	0.1	-2.3	2	-3	6%	-0.3	-2.2
CC(=O)N(\C=C/C=C/C=C1\Sc2ccccc2C1=O)c1ccccc1	11	-22	3.5	-9	4	5.5µM*	0.0	11
CCn1c(SCC(=O)NCc2ccc3c(c2)OCO3)nnc1-c1c[nH]c2ccccc12	2	-0.3	·	4	-1	3%	0.0	-2.0
COc1ccc(Cl)cc1N=Cc1c(O)c2ccccc2oc1=O	4	0.0	-5.6	-10	5	·	0.5	13
O=C(NCc1ccc2c(c1)OCO2)c1c(-c2ccsc2)sc2ccccc12	0	0.3	-0.2	·	·	·	-0.6	·
O=C1N[C@@H](Cc2ccccc2)COC(=O)[C@H](Cc2ccc(F)cc2)C/C=C\C[C@@H]1CC(=O)N(CCO)Cc1ccccc1	0	1.5	-0.8	·	·	·	-0.1	·
CC(=O)N1CCN(c2ccccc2NC(=O)c2ccco2)CC1	-1	-3.0	0.8	0	1	·	-0.6	1.7
COc1ccc(CNc2oc(C)nc2C#N)cc1	2	-0.7	·	8	-23	·	-0.7	-0.3
Cn1c(=N)n(CC(O)c2ccco2)c2ccccc21 (stereo not given)	-2	-1.3	·	4	3	13%	-2.5	0.7
Cc1cccc(NC(=O)c2nc[nH]c2C(=O)NCCCCNC(=O)c2[nH]cnc2C(=O)Nc2cccc(C)c2)c1	15	4.1	-1.0	·	·	·	-1.7	·
CNC(=O)c1c(NC(=O)C2=COCCO2)sc2c1CCC(C)C2 (stereo not given)	6	-3.0	-0.2	4	12	1%	0.3	-0.1
CCN(CC)S(=O)(=O)c1ccc(C)c(NC(=O)CSc2nc3ccc(C)cc3[nH]2)c1	-15	-5.9	-1.3	2	1	?	0.6	-4.8
NC(=O)c1cc2ccccc2o/c1=N\NC(=O)c1ccccc1O	4	3.5	1.0	-8	12	-7%	0.0	-5.2
O=C(CNC(=S)N(CCCN1CCOCC1)Cc1cccs1)N1CCCCCC1	2	0.1	-2.1	·	-1	-3%	0.9	·
COC(=O)Cn1c(=NC(=O)CSCC(=O)Nc2cc(C)on2)sc2ccccc21	-1	2.2	-1.5	-5	-6	·	0.2	-4.9
COc1cccc(NC(=O)Nc2ccc3c(c2)nnn3C)c1	-2	0.2	·	·	·	-5%	-3.4	·
COc1cc(O)c(C(CCN2CCCC2)c2ccc3c(c2)OCO3)c(OC)c1 (stereo not given)	-5	-1.2	17	-19	-25	·	1.9	-1.9

Additional compounds
Structure	Beta cell apopt	LANA-H2B inh	AF4-AF9 inh	T cruzi inh	Calb FLC	Vif A3G	Bfl-1 A1 inh	RanGTP-Imp inh
c1ccc(CCSc2ncnc3nc[nH]c23)cc1	4	-1.6	-2.5	5	-19	4%	-0.9	?
CC(=O)N1CCc2cc(S(=O)(=O)CCC(=O)N3CCc4ccccc4C3)ccc21	3	-3.3	·	1	-2	16%	0.3	-2.1
O=C(Nc1nnc(Cc2ccc(Cl)cc2)s1)C1CCCO1 (stereo not given)	1	2.9	-1.2	0	-30	3%	1.6	-1.9
CCCCNC(=O)CCC(=O)Nc1ccc2nc(N3CCN(C)CC3)cc(C)c2c1	-1	-0.5	2.7	45	2	32%	-0.6	-1.9
N/C(=N\OC(=O)c1ccco1)c1ccccc1	-6	-0.2	·	-2	-3	-4%	-6.4	-0.4
Cc1ccc(/C=C/C(=O)OC(C)C(=O)NC2CCCCC2C)o1 (stereo not given)	·	-1.4	1.8	-8	-39	11%	0.2	-3.0
CN(C)S(=O)(=O)c1cccc(NC(=O)c2ccc3nccnc3c2)c1	4	-6.2	-4.3	-14	-7	-7%	-0.4	-6.1
O=C(COC(=O)c1cc(F)cc(F)c1)NCCCc1ccccc1	2	-5.2	-4.3	-11	11	-12%	-0.4	-0.7
O=C(Nc1ccon1)c1ccc(N2CCCCC2)c([N+](=O)[O-])c1	7	1.8	6.5	10	-18	-10%	-0.8	-6.1
COCCCN1C(=O)C(O)=C(C(C)=O)C1c1ccccn1 (stereo not given)	-3	-11	·	3	-7	66%	0.9	0.0
O=C(O)CCC(=O)N1N=C(c2ccc(Br)cc2)CC1c1ccc(Br)cc1 (stereo not given)	-6	-12	0.7	18	9	·	0.5	0.8
O=C(/C=C/c1cccc(F)c1)OCC(=O)N1CCCC1	-3	-1.3	-1.3	·	·	-1%	-0.7	·
O=C(Nc1ccc(S(=O)(=O)NCc2ccco2)cc1)c1ccc2ccccc2n1	2	4.7	·	20	-1	-3%	0.7	3.7
COC(=O)c1cc(C(=O)OCC(=O)Nc2ccc(N3CCOCC3)cc2)cc([N+](=O)[O-])c1	-1	-7.2	-1.9	·	·	·	1.4	·

Compounds were not picked by outcome; 4.3% or so of the library scored in one or more.
